Screens: PubChem, ICCB-Longwood Screening Facility, Harvard Medical School
HCMV NEC inh = inhibitors of HCMV UL50-UL53 interaction, biochemical, HTRF | actives 0.15% (n = 190,000) | normalized percent inhibition | inhibition, % (concentration not given with the values) | HCMV UL50-UL53 nuclear egress complex (human cytomegalovirus);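 active means both replicates at 50% or more, plus weaker picks with an unusually low signal ratio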;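 further: stock transfer was 100 nL into about 20 µL; 0% = negative control wells and 100% = wells with untagged competitor protein; inactives centre near -12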
Sa growth 42C = S. aureus growth inhibition at 42 and 30 °C, primary screen, LtaS inhibitor project, RN4220, two temperatures; OD600, 20 h, 42 °C; hits give low values; relative growth, % (no concentration beside the values); actives 0.53% (n = 170,000); AID 720641, 2013;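 active means growth at 42 °C up to 50% and 20 or more points under that at 30 °C, or under 10% at both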;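 further: 300 nL library stock went into each well; scaled to the means of positive and negative controls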
GIV Gai3 FP = inhibitors of GIV peptide binding to Galpha-i3, primary screen, biochemical, fluorescence polarization, FITC-GIV GBA peptide, rat Galphai3. actives 0.42% (n = 210,000). 90 min; hits give low values; scaled: aluminum fluoride 0%, vehicle 100%. percent of control (FP), % (no concentration beside the values). Guanine nucleotide-binding protein G(i) subunit alpha-3 (Rattus norvegicus), P08753;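 active means replicate mean at 85% of control or lower, very high polarization wells dropped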;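 further: wells of about 15 µL received 100 nL stock; the first replicate is given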
Target sequence (P08753 whole entry, looked up): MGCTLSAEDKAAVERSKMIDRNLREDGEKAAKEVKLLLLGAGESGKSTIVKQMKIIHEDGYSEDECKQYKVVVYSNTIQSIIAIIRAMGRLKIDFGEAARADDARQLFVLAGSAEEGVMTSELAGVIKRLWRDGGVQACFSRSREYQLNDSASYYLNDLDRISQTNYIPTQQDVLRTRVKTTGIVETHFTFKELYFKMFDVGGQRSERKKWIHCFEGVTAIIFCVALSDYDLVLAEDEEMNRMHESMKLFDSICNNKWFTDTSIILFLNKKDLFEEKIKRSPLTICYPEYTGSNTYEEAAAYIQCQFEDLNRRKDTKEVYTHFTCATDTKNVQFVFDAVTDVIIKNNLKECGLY
Sa growth 42C second temp = also measured in Sa growth 42C; calls as there; relative growth, %; measured here: growth at 30 °C;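 optical density after 20 h as mean of two plates; 100% = untreated growth and lower means inhibition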
* marks the source's active call; other numbers are inactive results; x = not tested or not shown; & = joins results of further samples.

SMILES | HCMV NEC inh | Sa growth 42C | Sa growth 42C second temp | GIV Gai3 FP
CCOc1ccccc1COC(=O)Cc1coc2cc(O)ccc12 | -17 | 96 | 87 | x
CCc1ccc(NC(=O)CN2C(=O)C3(SCC(=O)N3c3ccc(F)c(F)c3)c3ccccc32)cc1 (stereo not given) | x | 141 | 103 | 112
CCOC(=O)c1cn(C)c2ccccc2c1=O | 0 | 70 | 67 | 102
CCCCNC(=O)CCC1N=C2c3ccccc3N=C(SCC(=O)NCCc3ccc(OC)c(OC)c3)N2C1=O (stereo not given) | x | 128 | 92 | 98
CSc1nc(NS(=O)(=O)c2cc(Cl)sc2Cl)nn1C | -45 | 102 | 92 | 102
O=C(O)c1ccc(-n2nnnc2SCc2ccccc2F)cc1 | -2 | 92 | 108 | 100
COC(=O)c1ccc(CSc2nc3ccccc3c(=O)n2C(C)c2ccccc2)o1 (stereo not given) | 0 | 87 | 97 | x
O=C(Nc1ccc(Cl)cc1)c1c[nH]n2c(=O)cc(C3CCNCC3)nc12 | x | 130 | 80 | 105
Cc1ccccc1Nc1nc(N)nc(Cn2cc(Br)ccc2=O)n1 | 9 | 111 | 102 | x
COc1ccc(NC(=O)c2c(NC(=O)COc3ccccc3)sc3c2CCCCC3)cc1 | -27 | 103 | 90 | 110
CN(C(=O)COC(=O)c1cnc(Cl)c(Cl)c1)C1CCCCC1 | 6 | 72 | 95 | x
Cc1cc(NC(=O)CCCN2C(=O)/C(=C\c3ccco3)SC2=S)no1 | -40 | 84 | 79 | 107
COc1ccc(-c2noc(-c3ccccc3NC(=O)c3cc(OC)c(OC)c(OC)c3)n2)cc1 | 7 | 93 | 91 | 101
O=C(OCC(=O)c1ccc(Cl)cc1Cl)c1ccccn1 | -37 | 115 | 79 | x
N#CCOC(=O)c1ccccc1NC(=O)c1ccccc1 | -2 | 103 | 80 | x

Arranged by value in Sa growth 42C second temp (largest number first): three of the compounds above.
| smiles | Sa growth 42C second temp |
| --- | --- |
| N#CCOC(=O)c1ccccc1NC(=O)c1ccccc1 | 80 |
| O=C(OCC(=O)c1ccc(Cl)cc1Cl)c1ccccn1 | 79 |
| CCOC(=O)c1cn(C)c2ccccc2c1=O | 67 |

The list goes on.
SMILES | HCMV NEC inh | Sa growth 42C | Sa growth 42C second temp | GIV Gai3 FP
CCCCC(=O)Nc1ccc(S(=O)(=O)N2CCCCCC2)cc1 | -2 | 96 | 93 | 103
COc1cccc(-n2c(=O)c3sccc3n(Cc3ccc(C(C)(C)C)cc3)c2=O)c1 | x | 95 | 88 | 98
CC(=O)c1cccc(NC(=O)Cc2noc3ccccc23)c1 | 1 | 100 | 85 | 98
Cc1nc2scc(C)n2c(=O)c1S(=O)(=O)NCCN1CCOCC1 | -2 | 88 | 100 | 104
COc1ccc(N(CC(=O)Nc2c(C)n(C)n(-c3ccccc3)c2=O)S(=O)(=O)c2ccc(C)cc2)cc1OC | -17 | x | x | 105
O=C(NCCC1=CCCCC1)C1=NS(=O)(=O)c2ccccc2N1 | 6 | x | x | 102
Cc1ccc(S(=O)(=O)c2c(N)n(NC(=O)C3CC3)c3nc4ccccc4nc23)cc1 | -56 | 105 | 84 | 106
COc1cc(/C=C2\C(=O)NC(=S)N(c3ccc(F)cc3)C2=O)ccc1OCc1ccc(C(=O)O)cc1 | -28 | x | x | 109
Cc1[nH]nc(-c2ccc(S(=O)(=O)N3CCc4ccccc43)s2)c1C | -53 | 44 | 2 | 225
CCOC(=O)N1CCC(NC(=O)CSCc2nc(-c3ccccc3Cl)oc2C)CC1 | -21 | 81 | 91 | 102
O=C(/C=C/c1ccco1)OCc1nc2sc3c(c2c(=O)[nH]1)CCCC3 | -2 | 111 | 104 | x
CCOC(=O)C(Cc1ccccc1)NC(=O)Cn1nnc(-c2ccc(C)cc2)n1 (stereo not given) | -23 | 101 | 89 | 109
Cc1ccc(-n2ncc3c(NC4CCCCCC4)ncnc32)cc1Cl | x | 135 | 96 | 101
O=S(=O)(CCN1CCC(n2cccc2)CC1)c1ccccc1 | -3 | 108 | 95 | 108
CCN(CC)S(=O)(=O)c1ccc2oc(C(=O)NC3CCCCC3C)c(C)c2c1 (stereo not given) | x | 97 | 76 | 104

Some of the entries so far, tab-delimited.
structure	HCMV NEC inh	Sa growth 42C	Sa growth 42C second temp	GIV Gai3 FP
O=C(NCCC1=CCCCC1)C1=NS(=O)(=O)c2ccccc2N1	6	x	x	102
Cc1ccc(S(=O)(=O)c2c(N)n(NC(=O)C3CC3)c3nc4ccccc4nc23)cc1	-56	105	84	106
COc1cc(/C=C2\C(=O)NC(=S)N(c3ccc(F)cc3)C2=O)ccc1OCc1ccc(C(=O)O)cc1	-28	x	x	109
Cc1[nH]nc(-c2ccc(S(=O)(=O)N3CCc4ccccc43)s2)c1C	-53	44	2	225
CCOC(=O)N1CCC(NC(=O)CSCc2nc(-c3ccccc3Cl)oc2C)CC1	-21	81	91	102
O=C(/C=C/c1ccco1)OCc1nc2sc3c(c2c(=O)[nH]1)CCCC3	-2	111	104	x
CCOC(=O)C(Cc1ccccc1)NC(=O)Cn1nnc(-c2ccc(C)cc2)n1 (stereo not given)	-23	101	89	109

(listing goes on)
SMILES | HCMV NEC inh | Sa growth 42C | Sa growth 42C second temp | GIV Gai3 FP
Cc1ccc(-n2c(=O)c3c(cnn3C)n(Cc3cccc(C)c3)c2=O)cc1 | -37&-22 | 90 | 85 | 103&102
Cc1ccccc1C(=O)OCC(=O)Nc1cccc(C#N)c1 | -30 | 115 | 69 | x
CC1=C(C(=O)Nc2ccccc2)C(c2ccc(O)cc2)n2ncnc2N1 (stereo not given) | 10 | x | x | 100
COC(=O)CC1C(=O)NCCN1C(=S)Nc1ccccc1 (stereo not given) | -38 | 91 | 91 | 104
CC1CN(CC(O)COC(C)c2ccc(Cl)cc2)CC(C)O1 (stereo not given) | -23 | 111 | 84 | x
CNC(=S)NC1CCN(Cc2ccccc2)CC1 | -27 | 86 | 87 | x
CCC(C)C12CN(C(C)=O)CC(C)(CN(C(C)=O)C1)C2=O (stereo not given) | 9 | 91 | 81 | 105
Cc1cccc(C)c1NC(=O)Nc1csc2c1CCCC2 | -15 | 101 | 93 | 96
COc1ccc(C(=O)CSC2=NCCCCCC2)cc1 | -27 | 93 | 84 | 100
CCCNC(=O)c1ccc2c(=O)n(-c3cccc(F)c3)c(SCC(=O)c3c[nH]c4ccc(OC)cc34)nc2c1 | -19 | x | x | 105
CN(C)c1c(F)cc(C(=O)NC(=O)Nc2nnc(C(F)(F)F)s2)cc1F | -39 | 92 | 71 | 102
COc1cccc(NC(=O)NCCc2nc3cccnc3n2Cc2ccccc2)c1 | -13 | x | x | 124
CC1CCc2c(sc(NC(=O)c3cccs3)c2C(=O)N2CCCCC2)C1 (stereo not given) | -5 | 112 | 111 | 100
CCn1cc(C(=O)OCC(=O)Nc2ccc(F)cc2F)c(=O)c2ccc(C)nc21 | 18 | 91 | 96 | 106
CC(=O)Nc1c2n(c3ccccc13)CC(C)(C(=O)NC1CCCCC1)N(C1CCC(C)CC1)C2=O (stereo not given) | -18 | x | x | 102
COc1ccc(NC(=O)Nc2nnc(C)s2)cc1 | 59 | 99 | 93 | 103
O=C(Oc1ccccc1)c1nc2ccccc2nc1N1CCOCC1 | -39 | x | x | 100
Nc1cc(-c2ccc(Cl)cc2)nn1-c1ccc(I)cc1 | 5 | 101 | 85 | 97
Cc1ccc(NC(NC(=O)c2cccs2)C(=O)c2ccccc2)cc1 (stereo not given) | x | 95 | 90 | 102
Cc1nc2nc(NC(=O)c3ccccc3)[nH]n2c(=O)c1Cc1ccccc1 | -13 | 80 | 85 | 96
CC(=O)OC1C(=O)c2ccccc2OC1c1ccccc1 (stereo not given) | -1 | 122 | 69 | 100
Cn1nnnc1SCC(=O)Nc1ccc(C(=O)N2CCN(Cc3cccs3)CC2)cc1 | -4 | 88 | 92 | x
CCN(CC(=O)Nc1ccc(Br)cc1)CC(=O)Nc1ccc(NC(C)=O)cc1 | 0 | 94 | 83 | x
COc1ccc(-c2nc(-c3cccs3)no2)cc1 | -3 | 81 | 78 | x
O=C(Nc1ccc(Cl)cc1)c1nnc(SCC(=O)N2CCN(c3ccccn3)CC2)s1 | -11 | x | x | 98
O=C(Cn1cnc2c(oc3ccccc32)c1=O)Nc1ccccc1F | x | 94 | 66 | 99
Cc1ccc2nc(CSc3nnc(NC(=O)CC(C)C)s3)cc(=O)n2c1 | x | 96 | 88 | 103
C=CCN(C(=O)C(C)Sc1nc2ncccc2o1)c1ccccc1 (stereo not given) | -21&-13 | 112 | 86 | 103&107
C(=Nc1ccc(Cc2ccc(N=Cc3ccccn3)cc2)cc1)c1ccccn1 | -15 | 80 | 92 | 99
O=C(CCC(=O)N1CCCCc2ccccc21)N1CCC2(CC1)OCCO2 | 9 | 97 | 95 | 104
CCN(CC)CCn1c(=O)[nH]c2cc(C(=O)NC3CCCC3)ccc21 | 2 | 98 | 91 | 100
COc1ccc(NC(=O)CCCn2c(=O)c3sccc3n(CC(=O)C(C)(C)C)c2=O)cc1 | x | 100 | 88 | 100
CCCCCn1c(=O)[nH]c2cc(C(=O)NCCN(CC)CC)ccc2c1=O | -22 | x | x | 102
CC(=O)Nc1ccc(S(=O)(=O)NC2(C(F)(F)F)NC(=O)N(c3ccccc3F)C2=O)cc1 (stereo not given) | 10 | 99 | 91 | 99
CC(=O)Nc1ccc2c(c1)ncn2-c1ccccc1 | -9 | 102 | 81 | 96
CCc1ccc(NC(=O)Nc2nnc(N(C)Cc3ccccc3)s2)cc1 | x | 98 | 94 | 103
CCC(CO)Nc1ncnc2c1cnn2-c1ccc(C)cc1 (stereo not given) | x | 101 | 83 | 105
CCOCCc1nn2c(=O)cc(COC(=O)c3ccccc3NC(=O)c3ccccc3F)nc2s1 | x | 97 | 89 | 102
OCCNc1nnc2c(n1)[nH]c1ccccc12 | -76 | 90 | 99 | 103
CCCN(CCC)C(=O)c1nn(C)c2c1CSc1ccccc1-2 | -1 | 104 | 100 | 107
O=C(O)CSCC(=O)Nc1ccccc1-c1ccccc1 | -11 | 97 | 95 | 104
O=C(Cc1ccccc1)Nc1sc2c(c1C(=O)Nc1ccc(Br)cc1)CCC2 | -18 | 99 | 90 | 105
CCSc1ncc2c(=O)n(CC(=O)Nc3cccc(C)c3C)cnc2n1 | -6 | x | x | 106
O=C(c1ccccc1)c1ccccn1 | -20 | 92 | 79 | 77*
Cc1cn2c(=O)c(C(=O)NC3=NCCS3)cnc2s1 | -11 | 101 | 94 | 109
COc1ccc(Cc2nn3c(C(F)(F)F)nnc3s2)cc1OC | -15 | 104 | 88 | 108
CCCNC(=O)Cn1c2ccccc2c2cn[nH]c(=O)c21 | 3 | 85 | 70 | 104
CC(=O)Nc1ccc(/C=C2/C(=O)N(CCC#N)C=C2C)cc1 | 34 | 86 | 98 | x
CC1CC(C)(C)N(C(=O)c2ccccc2F)c2ccccc21 (stereo not given) | -6 | 88 | 89 | 103&97
O=C1CC(c2cccs2)Cc2nc(NCCN3CCOCC3)ncc21 (stereo not given) | -7 | 81 | 85 | 100
O=C(c1ccc(O)cc1)N1Cc2ccccc2NC1=S | -2 | 122 | 121 | x
CCOC(=O)c1c(C)oc2c1c1c(c3ccccc32)OCN(C(C)C)C1 | -24 | 68 | 71 | x
CSc1ccc(CCNC(=O)Nc2cn(C)c(=O)c3ccccc23)cc1 | x | 96 | 92 | 104
CCOC(=O)c1[nH]cnc1C(=O)Nc1cccc(OC)c1 | x | 123 | 89 | 102
CCc1ccc(-n2[nH]c(=O)c(/C=c3/c(C)c(C#N)c4nc5ccccc5n4c3=O)c2O)cc1 | x | 96 | 68 | 110
CCOc1ccc(-c2ccc(NS(=O)(=O)c3cc(C)ccc3OC)cc2)nn1 | x | 104 | 94 | 105
CCCCC(=O)Nc1nn2c(-c3cccc(C)c3)nnc2s1 | x | 87 | 86 | 100
CCC(C)n1nnc2cc(S(=O)(=O)N3CCC(C(=O)Nc4ccc(OC)cc4)CC3)ccc21 (stereo not given) | -13 | x | x | 105
Cc1cc(=O)n2c(n1)NC(Nc1cccc(C)c1C)=NC2c1ccccc1 (stereo not given) | -23 | x | x | 103
CC(=O)Nc1ccc(NC(=O)c2oc3c(c2C)-c2nn(Cc4ccccc4Cl)cc2CC3)cc1 | 0 | 113 | 73 | 99
The list continues:
SMILES | HCMV NEC inh | Sa growth 42C | Sa growth 42C second temp | GIV Gai3 FP
c1ccc(C2CC(c3ccccc3)n3nnnc3N2)cc1 (stereo not given) | -8 | 121 | 88 | x
N#Cc1cc2c(nc1SCC(=O)Nc1cccc(C(F)(F)F)c1)CCC2 | -15 | x | x | 97
COCc1nnc(NC(=O)COc2ccccc2-c2nc(C)no2)s1 | -19 | x | x | 98
Cc1nc2cccnc2n1-c1cccc(C(=O)NCCc2ccc(Cl)cc2)c1 | x | 124 | 91 | 105
CCCCNC(=O)C1CCC(=O)N1Cc1ccccc1Cl (stereo not given) | -26 | 103 | 88 | 110
O=C(c1ccc(Cl)cc1)n1c(=O)oc2cc(Cl)ccc21 | x | 115 | 88 | 96
COCCn1ccc2nc(C)c(C(=O)NCc3ccc4c(c3)OCO4)cc2c1=O | -30 | x | x | 101
O=C(O)C1CCC(Cn2c(=S)[nH]c3ccccc3c2=O)CC1 (stereo not given) | -11 | 89 | 84 | 100
CC1CCCCC1n1c(SCC(=O)c2ccc(Br)s2)nnc1-c1cccnc1 (stereo not given) | -68 | 56 | 51 | x
